# Ab BasE inh: blocks the Acinetobacter baumannii siderophore enzyme BasE; purified BasE, fluorescence polarization binding displacement; inhibition, % (concentration not given with the values); 84,000 compounds, 0.1% hits; AID 485350;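 active = both replicates above 25% with normal brightness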;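 also: 0% = negative plate control signal and 100% = positive plate control signal; stock transfer was 100 nL into about 30 µL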
# KSHV LANA nucl: LANA-nucleosome interaction inhibition; z-score (concentration not given with the values); FITC-LANA1-23 / chicken nucleosome fluorescence polarization; stronger effect = lower value; 51,000 compounds, 0.3% hits;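 active = both repeat wells score below -2 in polarization z-score versus plate sample wells, excluding overly bright wells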;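 also: 100 nL library stock added to about 30 µL; numbers are from one replicate; some results filed as inactive read as strong as hits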
#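 Test system: purified chicken nucleosomes with FITC-labelled LANA N-terminal peptide (1-23); Input: 240 nM purified chicken nucleosomes (480 nM peptide binding sites), final; Medium: TEN-BT buffer, pH 7.5; Timing: 10–45 min, room temperature; Technique: fluorescence polarization, 480 nm excitation, 535 nm parallel and perpendicular emission; Replication: duplicates.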
# * = called active by the depositor; · = not tested or not shown; & = joins results of further samples. This is a subset; rates above refer to the full screens.
Structure	Ab BasE inh	KSHV LANA nucl
CCSC1(SCC)N=C(N)C2(C#N)C(c3ccc(NC(C)=O)cc3)C12C#N (configuration not stated)	0.6	-1
O=C(Nc1cccc(C(=O)N2CCN(C(c3ccccc3)c3ccccc3)CC2)c1)c1ccco1	-0.1	0.55
O=c1c(Cl)c(N2CCOCC2)cnn1Cc1ccccc1	-1.6	·
Cc1ccc(OCc2nnc(SCC(=O)CC(=O)Nc3ccccc3)o2)cc1	-4.1	0.012
Nc1ccc(C(=O)O)c(O)c1	2.6	0.24&-0.072&0.074&0.039
CC1=C(C(=O)N2CCOCC2)C(c2ccc3c(c2)OCCO3)NC(=S)N1 (configuration not stated)	1.3	·
C=CCn1c(SCC#N)nc2c(c1=O)C1(CCCCC1)Cc1ccccc1-2	0.5	-0.06
COc1ccc(CCn2c(NCc3ccco3)nc3c2c(=O)[nH]c(=O)n3C)cc1	0.1	0.13
Cc1cccc(C)c1NC(=O)COC(=O)Cn1nnc(-c2ccccc2)n1	-0.4	·
COC(=O)NCc1ccc(CNC(=O)OC)cc1	2.4	0.94
Cc1cccc(OCC(=O)N(Cc2ccco2)Cc2ccco2)c1	28*	0.49
CC(C)(C)CC(=O)Nc1cccc2c1CCCC2	-0.8	1.1
CC(Sc1nc2ccccc2n1C)C(=O)Nc1ncc(Cl)cc1Cl (configuration not stated)	0.1	·
COc1ccc(C2c3cc(OC)c(OC)cc3CCN2C(C)=O)cc1OC (configuration not stated)	0.4	-1.5
O=C(CCCCCCCCCCCCC1CCCC1)Nc1ccc(S(=O)(=O)c2ccc(NC(=O)CCCCCCCCCCCCC3CCCC3)cc2)cc1	-0.7	-0.43
CN(C)c1cccc(C(=O)OCc2ccc(C#N)cc2)c1	0.1	·
COC(=O)C1CCN(C(c2ccc(OC)cc2)c2sc3ncnn3c2O)CC1 (configuration not stated)	0.7	-0.62
S=C(NCCCN1CCOCC1)Nc1ccccc1	1.4	-0.92
CCn1nccc1C(=O)O	-0.4	0.17
COc1ccc(C(C(C#N)C#N)C2C(=O)N(Cc3ccccc3)N=C2C)cc1 (configuration not stated)	2.7	-0.059

Structure	Ab BasE inh	KSHV LANA nucl
CC(=O)Nc1ccccc1NC(=O)C(C)C	-3.4	0.099
O=C1c2ccccc2C(=O)C1(c1ccccc1)N1CCN(c2ccccc2)CC1	1.3	1.2
O=C(CCCSc1nnc(-c2cccs2)n1CC1CCCO1)c1ccccc1 (configuration not stated)	2.4	·
COc1ccccc1C(=O)NCC(=O)Nc1ccc(-c2nnc3n2CCCCC3)cc1	1.7	·
CCC(=O)NC(c1ccco1)c1cc(Cl)c2cccnc2c1O (configuration not stated)	1.9	·
CN(C(=O)c1noc2c1CCCC2)c1ccccc1Cl	-0.6	·
NN(CCc1ccncc1)C1=NS(=O)(=O)c2ccccc21	1.3	1.3
CCCCn1c(CCC(=O)O)nc2cc(S(=O)(=O)N3CCOCC3)ccc21	1.9	·
O=C(CCC(=O)c1ccc(F)cc1)OC1CCOC1=O (configuration not stated)	-0.6	·
CCNc1ncnc2c1cnn2-c1ccc(C)cc1	0.5	-0.062
O=c1oc(-c2ccc(Cl)cc2)nnc1-c1ccccc1	1.2	·
O=C(NC1CC(=O)N(c2ccccc2)C1)N1CCN(C(=O)c2ccco2)CC1 (configuration not stated)	0.7	-0.67
O=C1/C(=C\c2ccc(OC(F)F)cc2OC(F)F)Oc2cc(O)ccc21	-7.0	·
CSc1nc(C)nc(N/C=C(\C#N)S(=O)(=O)c2ccccc2Cl)n1	1.5	-0.53
Cc1ccc(-c2cc3c4c(C)n(Cc5ccc6c(c5)OCO6)c(C)c4c(C)nn3c2)o1	-1.4	-0.86
CCOC(=O)c1c(C)[nH]c(C(=O)C(C)OC(=O)C2CC(=O)N(CCc3ccccc3)C2)c1C (configuration not stated)	-0.5	·
O=C(Nc1csc2ccccc12)NC1CCN(Cc2ccccc2)CC1	·	-0.13
O=C(OC1CCCCC1=O)c1ccc(-c2cccc(C(F)(F)F)c2)o1 (configuration not stated)	-2.3	·
C=CCn1c(CNC(=O)c2ccccc2)nnc1SCC(=O)N1CCN(c2ccccc2)CC1	0.3	0.029
C=CCn1c(CNC(=O)c2cccs2)nnc1SCC(=O)c1ccc(Br)cc1	3.4	-0.68

Structure	Ab BasE inh	KSHV LANA nucl
c1cncc(CNCc2cccnc2)c1	-0.2	0.32
Cc1cc(C)n(/N=C2/C(=O)Nc3ccc(Br)cc32)c(=O)c1C#N	-0.5	·
CCOC(=O)c1ccc(COc2nc3ccccc3nc2-c2ccccc2NC(C)=O)o1	1.1	0.84
Cc1c(N=c2scc(-c3ccc4c(c3)NC(=O)CO4)n2Cc2ccccc2)c(=O)n(-c2ccccc2)n1C	2.4	·
Cc1ccc(N=Nc2c(N)n[nH]c2N)cc1	22	-0.082
O=C(Nc1ccccc1)OCc1ccc(-c2cc(C(F)(F)F)cc(C(F)(F)F)c2)o1	1.6	·
CN(C)CCNC(=O)c1ccccn1	-5.8	·
Cc1ccc(C(=O)Nc2ccc(S(=O)(=O)N3CCOCC3)cc2)cc1C	-1.8	-1.2
Cc1cc(C=Cc2ccc3cc(N(C)C)ccc3[n+]2C)c(C)n1-c1ccccc1	-0.8	1.8
C=CCN=c1scc(-c2ccc(O)c(C(N)=O)c2)n1N=C1CCCC1	-1.9	·
CC(C)P(=O)(Cc1cccc(C#N)c1)C(C)C	2.5	·
O=C(NC(=S)Nc1ccccc1)c1ccco1	1.7	-0.14
O=C1Nc2ccc(Cl)cc2C12SCCS2	-4.7	-0.29
CCOc1ccc(N(CC)C(=O)C2CCCN(S(=O)(=O)c3cccc4nsnc34)C2)cc1 (configuration not stated)	2.4	-0.41
CC(C)(C)C(=O)Cc1nc(O)cs1	·	-0.049
O=C(CN1CCC(C(=O)Nc2ccccc2)CC1)Nc1cc(C(F)(F)F)ccc1-n1cncn1	-0.4	·
Cc1cc(C)n(-c2nc3cc(Cl)ccc3nc2Nc2ccc3c(c2)n(C)c(=O)n3C)n1	-1.1	-0.17
CCC(N)C12CC3CC(CC(O)(C3)C1)C2 (configuration not stated)	2.7	0.45
COc1ccccc1OCc1nnc(SCC(=O)N(C)C)o1	1.2	0.2
CCCCOC(=O)Nc1cc(C)ccc1C	3.2	-0.3

# Random excerpt: three compounds from above, in no set order.
Structure	Ab BasE inh	KSHV LANA nucl
O=C1/C(=C\c2ccc(OC(F)F)cc2OC(F)F)Oc2cc(O)ccc21	-7.0	·
Cc1ccc(-c2cc3c4c(C)n(Cc5ccc6c(c5)OCO6)c(C)c4c(C)nn3c2)o1	-1.4	-0.86
CCC(N)C12CC3CC(CC(O)(C3)C1)C2 (configuration not stated)	2.7	0.45

# New compounds follow
Structure	Ab BasE inh	KSHV LANA nucl
COc1ccc(C2=C/C(=C(/C#N)C(=O)NCc3ccco3)c3cc(C)ccc3O2)cc1	-3.6	·
O=C1CN(c2ccc(Cl)cc2)C2(CCCCC2)S1	-0.5	-0.11
CN(C)C(=O)CN1C(=O)c2ccccc2S1(=O)=O	-0.4	·
Clc1ccc(Cl)c(Nc2nc3cc(Cl)ccc3o2)c1	0.4	·
CC1=C(C(=O)N(CC(=O)NCc2ccco2)c2ccc(Cl)cc2)SCCO1	0.8	-0.2
CCc1c(C)nc2cc(-c3ccccc3)[nH]n2c1=O	-3.1	-0.074
CCCc1cc(=O)n2[nH]c(C(=O)N3CCC(C)CC3)nc2n1	2.4	0.077
CCc1cccc2c(=O)c(C(=O)N3CCCCC3)c[nH]c12	-1.1	-0.065
O=C(O)C1CCCN1S(=O)(=O)c1ccc(Cl)cc1 (configuration not stated)	1.0	-0.59
O=C(Nc1ccc(Oc2ccccc2)cc1)C1c2ccccc2Oc2ccccc21	1.0	·
N/C(=N\OC(=O)C1CCCS1)c1ccc(C(F)(F)F)cc1 (configuration not stated)	-2.4	0.7
CC(=O)Nc1nc(C(=O)O)cs1	-0.5	-0.2
COc1ccc(C(=O)Nc2ccc(N3CCN(c4ncccc4C(F)(F)F)CC3)nc2)cc1	-1.0	-1
Cc1noc2ncnc(N3CCC(C(=O)N4CCc5ccccc54)CC3)c12	-5.2	·
S=C(NCC1CCCO1)N1CCN(Cc2ccccc2Cl)CC1 (configuration not stated)	2.9	0.52
Oc1ccccc1N1CCN(c2nc(-c3cccs3)nc3ccccc23)CC1	1.1	·
CCOC(=O)c1c(NC(=O)COC(=O)Cn2cnc3ccccc32)sc(C)c1C	2.2	·
CN(C(Cc1ccc(OS(=O)(=O)c2cccc3cnccc23)cc1)C(=O)N1CCN(c2ccccc2)CC1)S(=O)(=O)c1cccc2cnccc12 (configuration not stated)	-0.6	0.19
O=C(COc1ccccc1)NCC(=O)Nc1nc(CC23CC4CC(CC(C4)C2)C3)cs1	0.4	·
Cc1cc(C)nc(SCC(=O)c2ccccc2)n1	-5.3	·

Structure	Ab BasE inh	KSHV LANA nucl
Cc1ccc(C(=O)Nc2nccs2)c(C)c1	-1.2	-0.71
Cc1cc(NC(=S)NC(C)(C)C)ccc1Br	-0.8	·
COC(=O)c1c(C)c(C)c(C(=O)OC)c(C)c1C	1.1	-0.024
CCCCN(C(=O)c1nn(C)c2c1CSc1ccccc1-2)C1CCN(C(C)=O)CC1	0.4	-1.1
CC(C)Oc1cccc(OCCn2cnc3ccccc32)c1	7.2	0.35
CS(=O)(=O)c1nc2ccccc2n1Cc1cccc2ccccc12	2.7	-0.14
O=C(NCCCN1CCCC1)C(Cc1ccccc1)N1Cc2ccccc2C1=O (configuration not stated)	-0.4	0.046
Cn1c(NC(=O)/C=C/c2ccccc2)cc(=O)n(C)c1=O	4.7	-0.3
Cc1nc2ccc(NC(=O)/C=C/C(=O)O)cc2s1	0.0	·
CC(=O)Nc1c2c(nn1-c1ccccc1)CS(=O)(=O)C2	2.8	0.34
CCCCN(CC)C(=O)c1ccccc1Oc1ccccc1	1.2	0.47
COc1ccc(CNC(=O)c2cccnc2SC)cc1OC	1.1	·
COc1cc2c(cc1OC)CN(C1CC(=O)N(CCc3ccccc3)C1=O)CC2 (configuration not stated)	-2.6	·
CCOC(=O)C1CCN(c2ncnc3cc(OC)c(OC)cc23)CC1	-2.9	·
c1ccc2c(c1)COC(CCN1CCN(CCC3OCc4ccccc4CO3)CC1)OC2	0.6	-0.55
Cn1cccc1/C=C/C(=O)OCc1ccccc1C#N	2.1	·
CCN(CC)C(=O)c1nn(C)c2c1CSc1ccccc1-2	-0.3	-1.9
O=C1CCCc2cc(S(=O)(=O)Nc3ccccc3)ccc2N1	0.2	·
CNc1[nH]c(=S)nc2sc3c(c12)CCCC3	0.8	·
CCCn1ccc2c(OCc3ccccn3)cccc2c1=O	-2.6	0.91

Structure	Ab BasE inh	KSHV LANA nucl
Cc1cc(N2CCCC(O)C2)nc(C)n1 (configuration not stated)	-1.2	0.57
O=C(OCCSc1cnc2ccccc2n1)c1cc(Cl)cc(Cl)c1	0.2	·
COc1ccc(C2=NNC(=O)CC2)cc1	0.4	0.49
CCC1(C)Cc2ccccc2-c2c1c(=O)n(Cc1ccccc1)c1nnnn21 (configuration not stated)	-1.7	0.58
Cc1cc(Nc2ccccc2O)c2ccccc2n1	-2.2	0.14
CCc1ccccc1Nc1nc(N)nc(CSc2ccc(F)cc2)n1	0.5	·
CC(C)(C)C(C)(C)O	0.5	·
C=CCn1c(SCC(=O)c2ccccc2)nc2ccccc21	0.5	·
Cc1oc2c(c1C(=O)Nc1ccc(I)cc1)CCCC2	-1.2	-0.66
Cn1nc(C(=O)N2CCCCCC2)c2ccccc2c1=O	3.4	·
O=c1nc(SCc2ccccc2)c2c(n1Cc1cccnc1)CCC2	9.8	0.78
Cc1[nH]c2ccc(Cl)cc2c(=O)c1CN1CCCC(C)C1 (configuration not stated)	-0.8	0.84
COc1ccc(C2C(C(=O)O)=C(C)OC2c2ccccc2)cc1 (configuration not stated)	-2.3	-0.034
Oc1c(C=NCc2ccccc2)[nH]c2ccccc12	-2.5	-0.27
CCOc1ccc(NS(=O)(=O)c2ccc3c(c2)N(C(C)=O)CCO3)cc1	-0.1	0.58
Cc1c(Sc2ccc(Cl)cc2)cnn1C(=O)Nc1cccc(C(F)(F)F)c1	1.6	·
CCCC(c1nnnn1C(C)(C)C)N(Cc1ccco1)Cc1cc2ccc(C)cc2[nH]c1=O (configuration not stated)	2.0	0.15
COc1ccc2[nH]c3c(=O)n(/N=C/c4ccccc4)cnc3c2c1	0.8	-0.58
CCSc1nnc(SCC(=O)c2ccc3[nH]c(=O)[nH]c3c2)s1	2.8	·
CC1(C)CC(=O)C=C(NNC(=O)C23CC4CC(CC(C4)C2)C3)C1	2.1	·

Structure	Ab BasE inh	KSHV LANA nucl
NCCNC(=S)Nc1ccccc1	0.8	·
CC[C@@]1(O)C[C@H](O[C@H]2C[C@H](N(C)C)[C@H](O[C@H]3C[C@H](O)[C@H](O[C@H]4CCC(=O)[C@H](C)O4)[C@H](C)O3)[C@H](C)O2)c2c(cc3c(c2O)C(=O)c2c(O)cccc2C3=O)[C@H]1C(=O)OC	·	0.19
CC(C)(C)OC(=O)C[n+]1ccc(C(N)=O)cc1	1.9	·
CCNC(=S)N/N=C1\CCCCC1C (configuration not stated)	1.8	·
CC(=NCCc1cnc[nH]1)c1c(C)[nH]n(-c2ccc(F)cc2)c1=O	0.9	0.34
CN1C(=S)N(C2CC2)C(=O)/C1=C\c1ccc(OC(F)F)cc1	7.5	·

# Assay outcomes as filed in PubChem BioAssay.
